From PubChem BioAssay
Mtb bLac sens – beta-lactam sensitization of Mtb H37Rv, H37Rv; inhibition, % at 25 µM; actives 0.27% (n = 330,000); AID 434955, 2010; M. tuberculosis H37Rv growth with meropenem, percent inhibition; hits of this screen are not shown here;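 active = about 74% or more and at least 40 points above the plate without the antibiotic, then above 30% in a dose series; inconclusive = first-round hits that could not be retested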;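 also: growth measured after seven days incubation then overnight dye step; 0% = bacteria only wells and 100% = bacteria with antibiotic; twin plates without the antibiotic show which effects depend on it; some results filed as inactive read as strong as hits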
YopH inh – YopH tyrosine phosphatase inhibitors, primary screen, biochemical, fluorescence Ex485/Em525; inhibition, %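 (about 10 µM by stock and volumes)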; AID 898, 2007; actives 0.16% (n = 140,000);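 active = inhibition of 50% or more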;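 also: controls were vehicle for no effect and minimum signal wells for full effect; inactives centre near -20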
RecA intein inh – Mtb RecA intein splicing inhibitors, primary screen, biochemical, fluorescence, HTS; cell-free RecA intein splicing; actives 0.75% (n = 290,000); inhibition, %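 (about 9 µM by stock and volumes)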; Protein RecA (Mycobacterium tuberculosis (strain ATCC 25618 / H37Rv)), P9WHJ3; in the data active = inhibition above about 30%; inconclusive = no clear call, values can overlap the other calls;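 also: 0% = vehicle wells and 100% = reference inhibitor control wells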
Target sequence (P9WHJ3 whole entry, looked up): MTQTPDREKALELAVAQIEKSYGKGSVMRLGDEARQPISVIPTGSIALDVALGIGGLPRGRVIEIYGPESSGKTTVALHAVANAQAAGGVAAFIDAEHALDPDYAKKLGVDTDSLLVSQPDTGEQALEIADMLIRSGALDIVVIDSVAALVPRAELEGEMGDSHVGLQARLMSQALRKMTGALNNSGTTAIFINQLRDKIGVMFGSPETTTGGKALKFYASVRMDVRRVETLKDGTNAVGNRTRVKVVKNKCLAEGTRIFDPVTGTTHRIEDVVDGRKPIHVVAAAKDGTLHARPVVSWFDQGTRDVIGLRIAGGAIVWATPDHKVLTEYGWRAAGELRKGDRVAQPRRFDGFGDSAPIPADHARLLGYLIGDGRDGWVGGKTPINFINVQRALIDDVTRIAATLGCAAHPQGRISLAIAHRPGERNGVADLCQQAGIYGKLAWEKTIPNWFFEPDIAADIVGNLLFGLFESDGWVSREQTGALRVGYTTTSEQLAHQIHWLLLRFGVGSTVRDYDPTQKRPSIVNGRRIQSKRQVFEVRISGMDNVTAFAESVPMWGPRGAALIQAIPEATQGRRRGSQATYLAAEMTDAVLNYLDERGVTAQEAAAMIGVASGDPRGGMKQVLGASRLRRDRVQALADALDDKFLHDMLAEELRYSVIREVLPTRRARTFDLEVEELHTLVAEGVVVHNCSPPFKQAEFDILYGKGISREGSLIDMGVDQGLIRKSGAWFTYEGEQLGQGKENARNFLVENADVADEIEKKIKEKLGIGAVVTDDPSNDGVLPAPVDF
Arbovirus inh – antivirals against arbovirus infection, primary screen, cell-based, full library, 10K replicate subset | arbovirus infection cell-based antiviral screen | inhibition, % at 10 µM | actives 0.37% (n = 200,000);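 active = inhibition from about 30%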;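 also: bluetongue infection of BSR cells; cell survival read as ATP light after 72 h; 0% = infected wells without compound and 100% = uninfected wells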
Mtb H37Rv – M. tuberculosis H37Rv growth inhibitors, H37Rv strain (AID 1626). M. tuberculosis H37Rv growth inhibition; higher % means a stronger effect. actives 0.95% (n = 220,000). inhibition, % at 10 µM, or IC50 in µM where a hit was titrated;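 active = confirmed in a dose series; inconclusive = inhibition above 80% but not taken into the dose series; inactive = below 80% or under 30% at every dose of the series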;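 also: bacteria incubated seven days before Alamar blue readout; 0% = bacteria only wells and 100% = bacteria with antibiotic wells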
Arbovirus inh repeat – further read-out of Arbovirus inh, marked with its call; inhibition, %; measured here: 10K subset replicate screen; many hits read low in the repeat;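 first of two repeat runs on a subset; 0% = infected and 100% = uninfected wells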
Starred values were filed as active, the others as inactive; u = inconclusive; x = not tested or not shown. This is a subset; the hit share may differ from the screen's.

SMILES	Mtb bLac sens	YopH inh	RecA intein inh	Arbovirus inh	Mtb H37Rv	others
COc1ccc(CC2(C)OC(c3ccc(C)c([N+](=O)[O-])c3)=NN2C(C)=O)cc1 (stereo not drawn)	-10	x	15	x	-6%
O=C(CSc1nc2ccccc2o1)Nc1ccc(Cl)cc1	1	-35	0.4	-3	-3%
CC1=C(C(=O)N2CCOCC2)C(c2ccc(Cl)cc2)NC(=S)N1 (stereo not drawn)	-10	-35	0.8	1	-14%
COCCCn1c(C)nnc1SCC(=O)NCc1ccco1	2	-8	-3.8	-4	-17%
CCCCC1=CC2=C(c3ccco3)C(=O)C(C)(OC(=O)c3ccc(OC)cc3)C(=O)C2=CN1c1ccccc1 (stereo not drawn)	-1	x	4.8	x	-4%
FC(F)(F)c1nnc2n1N=C(c1ccccc1)CS2	-5	x	-1.2	x	x
Cc1cc(Nc2ccc(F)c(F)c2)nc(-c2ccccc2O)n1	2	x	-9.1	x	-3%
Cc1nn(-c2ccccc2)c(C)c1NC(=O)c1cccs1	-2	-12	1.0	7	-14%
S=C(Nc1ccc(Oc2ccccc2)cc1)NC1CCCCC1	6	-7	3.3	2	-1%
COc1ccc(C(=O)NCCCOC(C)C)cc1OC1CCN(C(C)=O)CC1	2	x	1.0	x	x
Cc1ccc(NC(=O)NC2CCCCC2)cc1S(=O)(=O)N1CCOCC1	-8	x	2.4	-1	4%
CC(=O)Nc1ccc(-c2ccc(NC(C)=O)cc2)cc1	0	x	1.9	-4	x
CC(C)C(=O)NC(c1ccc([N+](=O)[O-])cc1)c1c(O)ccc2ccccc12 (stereo not drawn)	-8	-22	-2.5	-27	-3%
Cc1ncc([N+](=O)[O-])n1CC(=O)NC1CCCCCC1	-1	x	-1.7	1	-1%
COc1cccc(C(=S)N2CCOCC2)c1OS(=O)(=O)c1ccc(Cl)cc1	7	x	-0.3	x	x
O=C(/C=C/c1ccc[nH]1)c1ccccc1	0	x	1.1	-3	3%
COc1ccccc1CNC(=O)CSc1nc(-c2ccccc2)cn1N	3	-10	2.8	-2	-2%
COc1ccccc1-c1noc(-c2cc(OC)c(OC)c(OC)c2)n1	71	-34	-3.4	3	-6%
O=C(Nc1ncccc1O)c1cccc(S(=O)(=O)NCc2ccccc2)c1	5	x	-0.6	x	x
O=C(Nc1ccccn1)C1CCCN1S(=O)(=O)c1ccc(Cl)cc1 (stereo not drawn)	-3	x	2.8	x	x
CCn1c(-c2cc(Br)cc(OC)c2O)nc2cc(S(=O)(=O)N(C)C)ccc21	6	-43	x	-9	0%
COc1ccc(Cl)cc1S(=O)(=O)N(C)CC(=O)N1CCOCC1	-10	x	-1.1	x	x
COc1cccc(Cn2c(=O)ccc3ccccc32)c1	5	x	-0.7	2	4%
Cn1ncc([N+](=O)[O-])c1C(=O)Nc1cccc(Cl)c1	0	x	1.7	x	x
O=C(OCc1nnc(-c2ccccc2)o1)c1ccc(Br)o1	80	x	1.7	x	x
CC(=O)c1cccc(NC(=O)NCc2ccco2)c1	-19	-25	1.0	1	-2%
Cc1ccc(N=Nc2c(N)nn3c(N)c(C#N)c(C)nc23)cc1	0	x	-1.8	-17	0%
CN1CCN(CC(=O)Nc2nc(-c3c[nH]c4ccccc34)cs2)CC1	-17	x	-1.3	-15	6%
Cc1sc2nc(SCC(=O)Nc3ccccc3F)[nH]c(=O)c2c1C	2	x	-6.5	x	x
CC1=C(C#N)C(=O)NC(=O)/C1=C\c1ccc(-c2ccc(C)cc2[N+](=O)[O-])o1	x	x	7.6	1	-4%
CCOCCCNC(=O)c1ccc2c(=O)n(Cc3ccc4c(c3)OCO4)c(=S)[nH]c2c1	2	x	0.3	-9	2%
O=C(c1nnsc1S(=O)(=O)c1ccc(Cl)cc1)N1CCOCC1	x	x	21	-32	8µM*
Cc1ccccc1CSCC(=O)Nc1ccccc1-c1ccccc1	7	-12	9.1	-7	7%
S=C(c1ccc(Br)cc1)N1CCCC1	-1	x	0.6	x	x
CCC(Oc1ccccc1)C(=O)N(Cc1ccccc1)c1ccccn1 (stereo not drawn)	-8	-26	-0.2	-1	2%
Cc1nc(CC(=O)O)c(-c2ccccc2)s1	-3	-32	-2.2	7	-8%
CC(=O)N1CCc2cc(NC(=O)c3ccc(C)cc3)ccc21	-10	-16	1.8	-4	-4%
Cc1cc(C(=O)N/N=C/c2cccs2)no1	3	-46	2.3	0	7%
Cc1ccc(C2CC(c3ccccc3OC(F)F)Nc3ncnn32)cc1 (stereo not drawn)	-11	0	-0.7	-1	-5%
CN1CCC(N(C)S(=O)(=O)c2ccc(NC(=O)COc3cccc(C(F)(F)F)c3)cc2)CC1	1	x	-0.6	x	x

By substructure, the compounds so far with a thiophene ring, fused or not
SMILES	Mtb bLac sens	YopH inh	RecA intein inh	Arbovirus inh	Mtb H37Rv	others
Cc1nn(-c2ccccc2)c(C)c1NC(=O)c1cccs1	-2	-12	1.0	7	-14%
Cc1sc2nc(SCC(=O)Nc3ccccc3F)[nH]c(=O)c2c1C	2	x	-6.5	x	x
Cc1cc(C(=O)N/N=C/c2cccs2)no1	3	-46	2.3	0	7%

More results
SMILES	Mtb bLac sens	YopH inh	RecA intein inh	Arbovirus inh	Mtb H37Rv	others
O=C(CSc1nnc(NC(=O)C2CC2)s1)NCc1ccccc1Cl	-11	x	-1.0	x	x
Cc1ccc(CNC(=O)C2CC(c3ccc(C(F)(F)F)cc3)=NO2)o1 (stereo not drawn)	-8	x	0.3	x	4%
c1ccc(-c2cn(CC3CCCCC3)nn2)cc1	36	x	2.5	x	x
CCCCN1C(=O)N(C)C2NC(=S)NC21 (stereo not drawn)	-6	x	-0.2	x	-11%
COc1cc(-c2nnc(NC(=O)CS(=O)(=O)c3ccc(C)cc3)o2)cc(OC)c1OC	0	x	-0.5	x	x
CCC(Oc1ccccc1)C(=O)NCCOC (stereo not drawn)	-2	-21	-1.5	5	-8%
CCOC(=O)C1=C(C)Nc2nc3ccccc3n2C1c1ccccc1 (stereo not drawn)	15	-15	-0.2	0	-10%
Cc1cccc(NCc2ccc(O)c3ncccc23)c1C	-5	x	-4.5	-9	3%
O=C(N/N=C\c1cn(-c2ccccc2)nc1-c1ccccc1)c1ccc2c(c1)OCO2	64	-27	2.2	-15	19%
Cn1c(=O)c2c(nc(N3CCN(c4ccccn4)CC3)n2Cc2ccc(Cl)cc2Cl)n(C)c1=O	-4	-79	0.4	-3	x
Cc1n[nH]c(C)c1CCc1nc2c3ccccc3nc(SCC(N)=O)n2n1	x	-50	x	2	-1%
CC(=O)N(C1=C(Cl)C(=O)c2ccccc2C1=O)c1ccc(C(=O)O)cc1	-3	x	-0.3	x	x
Cc1nc(SCC(=O)c2ccccc2)n[nH]1	1	-27	1.9	-4	-8%
O=c1[nH]c(C2CCCN(S(=O)(=O)c3ccccc3)C2)nc2c1nnn2Cc1ccccc1Br (stereo not drawn)	37	x	-0.3	x	x
Cc1cccc(/C=C2\CS/C(=C\c3cccc(C)c3)C2=O)c1	-7	-11	3.1	3	-6%
CC(=O)c1c(C)[nH]c(C(=O)/C(C#N)=C/c2cccc(C)c2)c1C	7	x	0.1	x	x
CCOc1ccc(NC(=S)NCCCN2CCOCC2)cc1	-4	x	-1.2	1	-8%
O=C(c1ccco1)N1CCN(c2ncnc3scc(-c4cccs4)c23)CC1	22	-35	-1.0	-3	4%
O=C1c2ccccc2C(Nc2cccnc2)N1Cc1ccc2c(c1)OCO2 (stereo not drawn)	2	-25	-2.3	-2	-3%	Arbovirus inh repeat=4
OCC[C@@H]1C[C@@H](O)[C@H](O)[C@@]2(CCc3ccccc3O2)O1	-4	x	-1.9	x	x
COc1cc(OC)cc(N(C(=O)CNC(=O)c2ccco2)C(C(=O)NCC2CCCO2)c2ccccc2)c1 (stereo not drawn)	-4	x	1.4	x	x
COc1ccc(CCN2CC(C(=O)N3CCC(OC)CC3)CCC2=O)cc1 (stereo not drawn)	u	x	2.3	x	x
Cc1ccc(C(=O)NCCNS(=O)(=O)c2ccccc2)cc1	-3	-4	-1.1	1	-7%
COc1ccc(Nc2oc(COc3ccccc3OC)nc2C#N)cc1	-1	-21	6.3	3	3%
CCc1ccc(CNC(=O)c2ccc3c(c2)NC(=O)C(N2CCOCC2)S3)cc1 (stereo not drawn)	8	x	5.2	x	x
CCCNC(=O)N[C@@H](Cc1ccccc1)C(=O)OC	-8	-2	-0.5	-9	2%
Cc1ccc(-c2csc(N3CCN(c4cc5c(cc4Cl)nc(C(C)N)n5CCCO)CC3)n2)cc1 (stereo not drawn)	-4	x	1.2	x	x
CCOc1ccccc1C(=O)NCCNC(=O)c1ccccc1OCC	-4	x	1.5	x	x
Cc1ccc(C2C(C#N)=C(N)Oc3c2c(=O)n(C)c(=O)n3C)cc1 (stereo not drawn)	-8	-28	1.9	2	-1%
COCCn1c(CNc2ccc(F)cc2)nnc1SCC(=O)Nc1ccc(OC)cc1OC	-5	8	0.5	-3	-4%
CC(C)c1ccc(C2NC(=O)NC3=C2CCc2ccccc23)cc1 (stereo not drawn)	17	-8	-1.1	5	-5%
O=C(NCCc1ccccc1)c1ccc(=O)[nH]c1	-5	-34	-1.2	3	-11%
O=C(CCCn1c(=O)[nH]c2ccsc2c1=O)Nc1ccc(F)cc1	-3	x	3.8	-3	1%
C/C(=N\NC(=O)c1c(Br)c(C)nn1C)c1cccc(NC(=O)c2ccccc2C)c1	1	-26	0.2	-1	12%
CSc1n[nH]c(=S)n1N	-5	x	2.9	x	13%
CC(C)C[C@@H](CO)NC(=O)CC[C@H](NC(=O)OC(C)(C)C)C(=O)N(Cc1ccccc1)Cc1ccccc1	-7	x	-1.2	x	5%
NC(=O)c1cccnc1Nc1ccccc1Cl	3	-37	-3.3	-7	8%
COCc1cc(C)nc(N/N=C/c2ccc(-c3ccc(Cl)cc3[N+](=O)[O-])o2)c1C#N	x	x	-1.0	-1	4%
CC(C)(C)OC(=O)N1CCCC1C(=O)N1CCCC1C(=O)N1CCCC1C(=O)O (stereo not drawn)	x	-27	-19	6	3%
COc1ccc(NC(=S)NNC(=O)COc2ccc(Cl)cc2Cl)cc1	10	-30	-5.1	18	-1%
O=C1Nc2ccccc2/C1=N\N=C\C1=C(N2CCOCC2)C(=C\c2ccccc2)/CC1	96	-6	-6.5	-39	1.3µM*
CN(CC(=O)Nc1ccc(N2CCOCC2)cc1)C(=O)COc1ccccc1F	-12	x	-0.2	x	-11%
O=C(Nc1ccc(Cl)cc1)N1CCCN(c2ccc(C(F)(F)F)cc2[N+](=O)[O-])CC1	3	x	0.6	x	3%
CCn1cc(C(=O)Nc2ncccc2O)c(=O)c2cc(F)c(N3CCN(C(=O)c4ccco4)CC3)cc21	3	x	-8.4	x	x
O=C(/C=C/NNC(=O)c1cccc(Br)c1)c1ccccc1	48	-7	8.8	-14	14%
C=CCNC(=O)NC(=O)COn1nnc2ccc(S(=O)(=O)N(C)C)cc21	-5	1	-1.4	-3	3%
COC(=O)c1oc2ccc(Br)cc2c1NC(C)=O	-2	-22	0.6	2	-5%	Arbovirus inh repeat=3
COc1ccc2[nH]c(C(=O)N(Cc3ccccn3)Cc3ccccn3)cc2c1	-4	x	0.0	x	9%
Cc1ccc(/C=C/C2=NN(Cc3ccc(Cl)c(Cl)c3)C(=O)CC2)cc1	-5	-16	0.0	-8	-6%
O=C(NCCNC(=O)c1ccc(Br)o1)c1ccc(Br)o1	-5	-22	x	0	-1%	Arbovirus inh repeat=2
CCC(=O)Nc1ccc(NC(=O)c2cccc3ccccc23)cc1	1	x	-4.8	x	x
Cc1ccc(OCC(=O)NC2CC(C)(C)NC(C)(C)C2)c(C)c1	-3	x	1.9	-2	1%
Cc1cccc(NC(=O)CCc2ccccc2)c1	-7	x	-2.3	-5	-3%

Gathered by group, those above containing a cyano group.
SMILES	Mtb bLac sens	YopH inh	RecA intein inh	Arbovirus inh	Mtb H37Rv	others
Cc1ccc(N=Nc2c(N)nn3c(N)c(C#N)c(C)nc23)cc1	0	x	-1.8	-17	0%
CC1=C(C#N)C(=O)NC(=O)/C1=C\c1ccc(-c2ccc(C)cc2[N+](=O)[O-])o1	x	x	7.6	1	-4%
CC(=O)c1c(C)[nH]c(C(=O)/C(C#N)=C/c2cccc(C)c2)c1C	7	x	0.1	x	x
COc1ccc(Nc2oc(COc3ccccc3OC)nc2C#N)cc1	-1	-21	6.3	3	3%
Cc1ccc(C2C(C#N)=C(N)Oc3c2c(=O)n(C)c(=O)n3C)cc1 (stereo not drawn)	-8	-28	1.9	2	-1%
COCc1cc(C)nc(N/N=C/c2ccc(-c3ccc(Cl)cc3[N+](=O)[O-])o2)c1C#N	x	x	-1.0	-1	4%
